HNF4A DNA FP: change in binding of human HNF4 alpha to DNA. HNF4a-FITC DNA binding, fluorescence polarization, 1 h. AID 1224865. activity change, % at 10 µM. 360,000 compounds, 0.3% hits. P41235; in the data active = activity change above about 30%, passing the limit was not always enough;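 also: controls were the assay level and a saturating level of protein; the project sought stronger binding though the title names inhibitors; some compounds called inactive have numbers as strong as hits; positive values seem to mean higher polarization but the record does not say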
Target sequence (P41235 whole entry, looked up): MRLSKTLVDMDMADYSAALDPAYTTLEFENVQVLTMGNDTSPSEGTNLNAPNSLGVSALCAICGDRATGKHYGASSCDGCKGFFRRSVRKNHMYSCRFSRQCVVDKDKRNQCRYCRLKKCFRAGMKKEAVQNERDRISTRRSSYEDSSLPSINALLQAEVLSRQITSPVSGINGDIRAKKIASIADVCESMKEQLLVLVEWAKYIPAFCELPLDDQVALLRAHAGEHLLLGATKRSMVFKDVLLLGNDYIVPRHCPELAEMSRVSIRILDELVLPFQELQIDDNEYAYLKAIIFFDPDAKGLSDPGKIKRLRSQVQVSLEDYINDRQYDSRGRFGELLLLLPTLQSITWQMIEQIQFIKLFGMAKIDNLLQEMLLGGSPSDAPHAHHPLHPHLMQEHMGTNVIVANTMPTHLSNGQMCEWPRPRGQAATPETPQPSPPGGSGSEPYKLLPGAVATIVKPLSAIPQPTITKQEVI
rRNA inh HTS: inhibits bacterial ribosomal RNA function over humanized ribosomes | E. coli WT GFP vs humanized-ribosome RFP mutants, fluorescence, 24 h; hits give low values; DMSO median 0, no signal -100 | 350,000 compounds, 1.6% hits | GFP signal change (wild-type ribosome), % (concentration not given with the values) | AID 720706;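 active = significant combined selectivity score with lowered wild-type GFP, culture density cut under 30%, mutant RFP and density less affected; inactive = any of these conditions unmet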; also: one replicate is shown; some compounds called inactive have numbers as strong as hits
Vif A3G: inhibitors of Vif binding to APOBEC3G peptide, primary screen, biochemical, TR-FRET, GST-Vif 1-94, biotin-A3G peptide, dose response retest (AID 1117319). TR-FRET GST-Vif / biotin-A3G peptide binding; higher % means a stronger effect; test concentration not given here; strong numbers were not always called active. one-dose inhibition, %; IC50 in µM for titrated hits. 260,000 compounds, 0.57% hits;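 active = above the screen mean plus three standard deviations and confirmed in dose response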;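 also: Vif residues 1-94 fused to GST binding biotinylated APOBEC3G peptide 110-148; 0% = full assay without inhibitor and 100% = GST in place of GST-Vif; retest series ran down from 100 µM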
ALR inh: inhibitors of human sulfhydryl oxidase ALR; purified ALR, DTT oxidation, H2O2 HRP-luminol luminescence; inhibition, % (concentration not given with the values); 290,000 compounds, 3.8% hits;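 active = mean and each replicate at 75% or more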;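 also: stock transfer was 7.5 nL into about 7.5 µL; 0% = neutral wells and 100% = wells with inactivated enzyme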
Target sequence (P55789 whole entry, looked up): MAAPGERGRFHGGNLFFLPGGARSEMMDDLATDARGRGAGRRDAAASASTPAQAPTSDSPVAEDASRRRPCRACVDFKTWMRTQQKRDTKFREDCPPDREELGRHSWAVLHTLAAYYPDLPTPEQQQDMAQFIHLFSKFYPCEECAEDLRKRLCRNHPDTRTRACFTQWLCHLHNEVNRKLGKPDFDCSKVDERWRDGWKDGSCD
FGF22 binding: FGF22 (human) thermal shift binding. Q9HCT0. recombinant FGF22 thermal shift, SYPRO orange fluorescence; percent of sucrose octasulfate shift, DMSO zero. 340,000 compounds, 1.5% hits. calls only at 9.99 µM;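 active = melting point raised past a set limit in the mean and every replicate; three in four hits are not shown here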
Target sequence (Q9HCT0 whole entry, looked up): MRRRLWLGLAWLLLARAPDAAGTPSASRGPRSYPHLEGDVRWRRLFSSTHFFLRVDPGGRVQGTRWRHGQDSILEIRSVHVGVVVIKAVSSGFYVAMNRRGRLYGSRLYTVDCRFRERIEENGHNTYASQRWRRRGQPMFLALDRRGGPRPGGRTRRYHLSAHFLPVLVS
AF4-AF9 inh: MLL-AF4/AF9 protein interaction inhibition; inhibition, % at 10 µM; P42568; 350,000 compounds, 0.47% hits; AlphaScreen, biotin-AF4 peptide binding to FLAG-AF9; AID 651704;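 active = every replicate reaching a set inhibition limit, whatever the replicate mean, cut at about 25% in these data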;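 also: 0% = plate neutral control median and 100% = total signal loss; the record names both 10 and 1 µM as test concentration; the first replicate is given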
Ecoli growth: inhibitors of Escherichia coli growth; OD600, 23 h; hits give low values; OD600 absorbance (test concentration not listed); 330,000 compounds, 0.21% hits;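 active = OD600 absorbance below the run mean of sample wells minus 3.6 SD, in any replicate, cut at about 0.56 in these data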;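 also: stock transfer was 300 nL into about 60 µL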
rRNA inh HTS OD600: further read-out of rRNA inh HTS, marked with its call; OD600 change, %; measured here: OD600 growth;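 optical density of the mix in the first replicate; 0 = DMSO median and -100 = no signal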
rRNA inh HTS RFP: further read-out of rRNA inh HTS, marked with its call; RFP signal change, %; measured here: RFP humanized mutant strains;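 first replicate; 0 = DMSO median and -100 = no signal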
* hit, by the source's call; i = inactive; . = not tested or not shown; & = joins results of further samples.

Results follow in this order: HNF4A DNA FP, rRNA inh HTS, rRNA inh HTS OD600, rRNA inh HTS RFP, Vif A3G, ALR inh, FGF22 binding, AF4-AF9 inh, Ecoli growth
1. O=C(COC(=O)/C=C/c1nc2ccccc2s1)Nc1cccc2ccccc12
→ -1.2, ., ., ., -5.0%, -14.2, ., ., 0.682
2. O=S1(=O)N=C(Oc2ccccc2)c2ccccc21
→ 1.2, ., ., ., 14.2%, -3.6, ., ., 0.67
3. C[C@H]1CN([C@@H](C)CO)S(=O)(=O)c2ccc(-c3ccccc3F)cc2O[C@H]1CN(C)Cc1cccnc1
→ ., -36.1, -56.9, 6.9, ., ., i, 10.0, .
4. COC(=O)c1[nH]c2ccc(Cl)cc2c1NC(=O)CN1CCC(C(N)=O)CC1
→ ., ., ., ., 0.8%, -3.9, ., ., 0.631
5. CC1=NN(C(C#N)c2ccccc2C)C(C)(C)C1 (stereo not drawn)
→ 2.3, 1.3, 2.2, -0.3, 3.2%, 6.3, i, -1.1, 0.657
6. CCOC(=O)Cn1c(=NC(=O)C2CC2)sc2c(C)cc(C)cc21
→ -0.1, 6.3, 5.2, -4.0, ., ., i, -4.9, 0.692
7. Cc1cccn2c(=O)c3cc(C(=O)NCCN4CCOCC4)n(C)c3nc12
→ 0.9, 12.6, 2.6, 4.2, ., ., i, -2.4, 0.71
8. O=C(O)c1cccc2c1C(=O)c1cc([N+](=O)[O-])ccc1-2
→ -1.1, -25.9, -22.1, -2.8, -9.1%, ., i, -0.2, .
9. O=C(C[C@H]1C[C@H]2c3cc(NC(=O)c4ccc5c(c4)OCO5)ccc3O[C@H]2[C@@H](CO)O1)NCC1CC1
→ ., -2.7, 1.7, -2.0, ., ., i, -0.9, .
10. CC(C)n1cc(C(=O)N2CCCC(N3CCN(c4ccc(F)cc4)CC3)C2)cn1 (stereo not drawn)
→ -3.5, 5.5, 10.9, -1.6, 1.5%, 36.8, i, -0.9, 0.733
11. Cc1ccc(OCc2nnc(NC(=O)c3ccco3)s2)c(C)c1
→ -0.2, ., ., ., 7.0%, 0.7, ., ., 0.66
12. CCOC(=O)C1CCN(C(=O)COC(=O)CNC(=O)c2ccc(OC)cc2)CC1
→ 2.4, 16.1, 14.9, 3.1, 21.6%, -5.0, i, 0.4, 0.663
13. CCCC#Cc1ccc2c(c1)O[C@H](CN(C)C(=O)CN(C)C)[C@@H](C)CN([C@@H](C)CO)S2(=O)=O
→ ., 1.0, 3.6, -0.6, ., ., i, 5.2, .
14. CC(=O)c1ccc(OCC(C)Oc2ccc(C#N)cc2)cc1 (stereo not drawn)
→ 2.1, -16.6, -16.7, 15.8, -4.7%, ., i, -6.2, 0.644
15. O=C(C[C@@H]1C=C[C@@H](NC(=O)C2CC2)[C@@H](CO)O1)NCCCN1CCOCC1
→ ., 2.1, 4.2, -1.7, ., ., i, -11.7, .
16. CC1CCCCC1NC(=O)CSc1nnc(COc2ccccc2Cl)o1 (stereo not drawn)
→ 6.3, ., ., ., 4.7%, -1.8, ., ., 0.733
17. O=C(Nc1ccccc1Cl)/C(Cl)=C(\Cl)S(=O)c1ccccc1 (stereo not drawn)
→ -8.0, -58.5, -79.2, -22.6, 0.3%, 97.6*, i, -0.8, .
18. C[C@@H]1CCCCO[C@H](CN(C)CC2CC2)[C@H](C)CN([C@@H](C)CO)C(=O)c2cc(NS(=O)(=O)c3ccc(F)cc3)ccc2O1
→ ., -1.2, -12.9, -0.7, ., ., i, 6.8, .
19. CO[C@@H](CN(C)Cc1cc(F)ccc1F)[C@H](C)CN(C(=O)Nc1ccc(C(F)(F)F)cc1)[C@@H](C)CO
→ ., -55.4, -82.5, -20.4, ., ., i, 1.7, .
20. CCOc1ccc(N2CC(O)Cn3c2nc2c3c(=O)n(CCCc3ccccc3)c(=O)n2C)cc1 (stereo not drawn)
→ 0.1, ., ., ., 1.0%&-7.5%, -5.0, ., ., 0.774
21. O=C(Nc1ccccc1Br)c1ccccc1-c1ccccc1
→ -4.1, ., ., ., -7.5%, -2.8, ., ., 0.706
22. Cc1ccc(C)c(S(=O)(=O)N2CCN(C(=O)Cn3cnc4c3c(=O)n(C)c(=O)n4C)CC2)c1
→ 1.8, 12.0, 5.9, 1.2, ., -2.8, i, 3.9, 0.647
23. c1ccc(-c2nnc(-c3ccccn3)s2)nc1
→ 1.4, 25.3, 10.3, 1.6, 3.2%, -1.2, i, -2.8, 0.574
24. c1cc(-c2sc(-c3ccncc3)c(-c3ccncc3)c2-c2ccncc2)ccn1
→ 7.2, -34.8, -29.1, 33.9, 8.2%, ., i, -4.6, 0.571
25. O=C(Cn1nnc(-c2ccccc2)n1)NC1CCS(=O)(=O)C1 (stereo not drawn)
→ 0.0, 15.4, 14.9, -1.6, -0.7%, 1.5, i, -1.0, 0.706
26. COc1cccc(C#Cc2ccc([C@@H]3[C@@H](CO)N(C(=O)C4CCOCC4)[C@H]3C#N)cc2)c1
→ ., -3.1, -8.2, 4.5, ., ., i, 0.8, .
27. O=C1[C@H]2[C@@H](c3ccccc3)N[C@]3(CCCN(Cc4ccc(C(F)(F)F)cc4)C3=O)[C@H]2C(=O)N1Cc1ccccc1
→ 4.8, 1.0, -4.0, -1.5, ., ., i, 0.1, .
28. CC(=O)N1c2ccc(S(=O)(=O)N3CCC(C(=O)N4CCC(C)CC4)CC3)cc2CC1C (stereo not drawn)
→ 0.6, 0.6, -0.9, -0.3, ., -2.3, i, -10.6, 0.698
29. [O-]/[N+](=C\c1ccco1)c1ccc(Cl)cc1
→ 0.2, 22.5, 18.5, 6.0, ., 0.3, i, -15.5, 0.673
30. CC12CCC(C/C1=N/NC(=O)COc1ccccc1Cl)C2(C)C (stereo not drawn)
→ -2.2, -0.2, 7.7, 6.8, -8.2%, -8.8, i, -1.2, .
31. COc1ccc(NC(=O)c2ccc(NC3CC(=O)N(c4ccc(C)cc4C)C3=O)cc2)cc1 (stereo not drawn)
→ -4.7, 1.5, -2.1, -1.6, -6.5%, -1.5, i, -17.5, 0.733
32. COc1cc2c(cc1OC)[N+]([O-])=C(c1ccccc1)C2=O
→ ., 1.1, 4.6, -4.0, ., ., i, 1.0, .
33. Cc1ccc(Sc2ncccc2COC(=O)Nc2c(C)cccc2C)cc1
→ 1.6, ., ., ., 12.7%, -26.1, ., ., 0.738
34. CCCCNC(=O)c1onc(CSc2ccccc2)c1C(=O)NCCCC
→ -1.0, -5.4, -4.8, -1.2, ., -1.8, i, ., 0.608
35. COc1ccc(-c2nc(C#N)c(NCc3ccccc3Cl)o2)cc1OC
→ -5.2, 10.1, 3.2, 9.5, 37.8%, -6.2, i, 4.4, 0.681
36. Cc1cc(C)nc(/N=C(\N)Nc2cccc(OCc3ccccc3)c2)n1
→ -3.0, -29.8, -37.6, 3.9, 24.3%, -8.3, i, 6.2, .
37. C=CCNC(=O)C1CCN(C(=O)c2ccc(-c3ccccc3)cc2)CC1
→ -4.7, ., ., ., ., ., i, -1.0, 0.648
38. C[C@H]1CN([C@@H](C)CO)C(=O)c2cc(NS(=O)(=O)c3cn(C)cn3)ccc2O[C@H]1CN(C)Cc1ccc(C(=O)O)cc1
→ ., 2.0, 9.8, 1.4, ., ., i, -2.0, .
39. C[C@@H]1CN([C@@H](C)CO)C(=O)c2cccc(NC(=O)CCCCCC(=O)Nc3ccccc3N)c2O[C@@H]1CN(C)S(=O)(=O)c1cccs1
→ ., -3.2, -7.3, -0.4, ., ., i, -1.3, .
40. C[C@H](CO)N1C[C@H](C)[C@@H](CN(C)Cc2ccc(C(=O)O)cc2)Oc2ccc(NS(=O)(=O)c3ccc(Cl)cc3)cc2CC1=O
→ ., 4.9, 1.3, -1.2, ., ., i, -0.6, .
41. CCCC(=O)N1CCC1(C)C(=O)NS(=O)(=O)c1cc(C)ccc1F (stereo not drawn)
→ -0.4, 17.4, 27.9, 0.7, ., ., i, -1.2, .
42. CC(C)(C)C(=O)NCc1ccc(C(=O)CSc2nnc3n2CCCCC3)s1
→ 6.4, 11.8, 23.8, 3.8, 5.8%, ., i, -1.3, .
43. Cc1ccc2oc(C(=O)N3CCCCCC3)c(C)c2c1
→ -0.1, -16.3, -18.9, 2.4, ., -2.5, i, -0.3, 0.674
44. O=C(CN(Cc1ccccc1Cl)C(=O)CCC(=O)Nc1nccs1)NCC1CCCO1 (stereo not drawn)
→ -2.3, -0.5, 14.6, -0.9, ., -0.9, i, -4.0, 0.705
45. C[C@H](CO)N1C[C@H](C)[C@@H](CN(C)Cc2ccc(C(F)(F)F)cc2)OCCCC[C@H](C)Oc2ccc(NS(=O)(=O)c3cn(C)cn3)cc2C1=O
→ ., -2.2, -1.1, -0.5, ., ., i, 1.5, .
46. C#CCOCCOCCOCCNc1nc(N2CCN(C(=O)[C@H]([C@@H](C)CC)n3cc([C@@H](N)CC(C)C)nn3)CC2)nc(N2CCN(C(=O)[C@H](Cc3ccc(O)cc3)n3cc([C@@H](N)C(C)CC)nn3)CC2)n1 (stereo partly drawn)
→ 3.9, -11.1, -44.7, 22.8, -23.1%, -49.3, i, 21.8, .
47. O=C(C[C@@H]1CC[C@H](NC(=O)Nc2cc(F)ccc2F)[C@@H](CO)O1)Nc1ccc(-c2ccccc2)cc1
→ ., -9.3, -14.6, -0.2, ., ., i, -12.7, .
48. O=C(c1n[nH]c(=O)c2ccccc12)N1CCN(c2ccc(F)cc2)CC1
→ 1.4, ., ., ., 4.3%, 22.0, ., ., 0.696
49. Cc1cccc(N2CCN(C(=O)C3CCN(S(=O)(=O)c4cccc5nsnc45)CC3)CC2C)c1 (stereo not drawn)
→ 3.7, ., ., ., 9.1%, 18.8, ., ., 0.724
50. C[C@H](CO)N1C[C@H](C)[C@@H](CN(C)C(=O)Nc2ccccc2)Oc2cc(C#Cc3ccccc3)ccc2S1(=O)=O
→ ., -0.7, -2.7, 1.5, ., ., i, 1.2, .
51. Cc1cccc(OCc2nnc(SCC(=O)Nc3ncc(C)s3)o2)c1
→ 2.7, -34.1*, -20.5*, -0.5*, 6.2%, -0.4, i, -2.1, 0.704
52. N#Cc1ccc(CSc2nnc(-c3ccccc3)n2Cc2ccco2)cc1
→ 4.8, ., ., ., 3.2%, -1.7, ., ., 0.735
53. CCCNC(=O)N1CC2(CCN(C(=O)Nc3cccc(F)c3)CC2)c2c(n(C)c3cc(OC)ccc23)[C@@H]1CO
→ ., -7.5, -7.2, -0.2, ., ., i, -8.5, .
54. CCOC(=O)c1sc(NC(=O)c2c(OC)cccc2OC)nc1C
→ 0.6, ., ., ., 10.9%, -3.0, ., ., 0.715
55. Cc1cc(NCc2cccnc2)no1
→ 0.3, 6.2, 10.4, -1.4, ., -9.4, i, -0.7, 0.653
56. Cc1ccc(C(=O)NC2CCN(S(=O)(=O)c3ccccc3)CC2)cc1
→ -1.4, 9.0, 8.9, -3.6, 23.6%, 0.2, i, -0.8, 0.711

3 compounds out of the list, sorted by length of the SMILES, falling.
Results follow in this order: HNF4A DNA FP, rRNA inh HTS, rRNA inh HTS OD600, rRNA inh HTS RFP, Vif A3G, ALR inh, FGF22 binding, AF4-AF9 inh, Ecoli growth
46. C#CCOCCOCCOCCNc1nc(N2CCN(C(=O)[C@H]([C@@H](C)CC)n3cc([C@@H](N)CC(C)C)nn3)CC2)nc(N2CCN(C(=O)[C@H](Cc3ccc(O)cc3)n3cc([C@@H](N)C(C)CC)nn3)CC2)n1 (stereo partly drawn)
→ 3.9, -11.1, -44.7, 22.8, -23.1%, -49.3, i, 21.8, .
41. CCCC(=O)N1CCC1(C)C(=O)NS(=O)(=O)c1cc(C)ccc1F (stereo not drawn)
→ -0.4, 17.4, 27.9, 0.7, ., ., i, -1.2, .
34. CCCCNC(=O)c1onc(CSc2ccccc2)c1C(=O)NCCCC
→ -1.0, -5.4, -4.8, -1.2, ., -1.8, i, ., 0.608

A portion of the library; rates above refer to the full screens.
